# TAR Tat displ: HIV-1 TAR-Tat binding disruption; z-score (concentration not given with the values); actives 0.6% (n = 100,000); AID 1259389; HIV-1 TAR RNA, Tat peptide displacement FRET; hits give high values;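 note: score is relative to mean and SD of negative controls; some compounds called inactive have numbers as strong as hits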
# CDC25B CDK2 inh: human CDC25B-CDK2/CyclinA binding inhibition. actives 0.72% (n = 94,000). HTRF CDC25B-CDK2/CyclinA binding, anti-His/anti-Flag; hits give high values. P30305+P24941. z-score (concentration not given with the values). AID 1259370;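 note: score is relative to mean and SD of negative controls; strong numbers were not always called active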
# Active calls of the source: *; . = no result given.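 Rule for the calls: active = z-score from 3 up in half or more of its runs; inactive = the rest.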
SMILES,TAR Tat displ,CDC25B CDK2 inh
CCCNS(=O)(=O)c1ccc2[nH]c(=O)ccc2c1,-0.57,.
CC1=C(C(=O)OCCOC(C)C)C(c2ccc(O)cc2)C2=C(CCCC2=O)N1 (stereo not drawn),4,-0.03
Cc1nc2sc(C(c3ccc(Cl)cc3)N3CCN(c4ccccc4F)CC3)c(O)n2n1 (stereo not drawn),.,-0.29
COC(=O)CCC(=O)c1oc2ccc(OC)cc2c1N,0.82,-0.41
COc1ccc(-c2noc(CN(C)S(=O)(=O)c3ccc(Br)cc3)n2)cc1OC,2.9,-1.5
O=c1[nH]c2ccccc2nc1Cc1ccc(F)c(F)c1,1.3,-1.6
O=S(=O)(c1cc(Cl)ccc1Cl)N1CCOCC1,.,-3
CC(C)(C)N1CC(COc2ccccc2)OC1=O (stereo not drawn),.,-1.6
CC(C)(C)NC(=O)COCc1cc(-c2ccco2)on1,-0.46,.
COCCCNC(=O)CN1c2ccc(Br)cc2-c2ccccc2S1(=O)=O,0.59,0.59
Cc1cc(-c2ccc(C)c(S(=O)(=O)Nc3cc(Cl)ccc3C)c2)on1,0.78,.
O=C(c1cc(-c2ccc(F)cc2)no1)N1CCN(Cc2ccc3c(c2)OCO3)CC1,2.3,.

# Copied from the results shown, seven compounds:
SMILES,TAR Tat displ,CDC25B CDK2 inh
O=c1[nH]c2ccccc2nc1Cc1ccc(F)c(F)c1,1.3,-1.6
O=S(=O)(c1cc(Cl)ccc1Cl)N1CCOCC1,.,-3
CC(C)(C)N1CC(COc2ccccc2)OC1=O (stereo not drawn),.,-1.6
CC(C)(C)NC(=O)COCc1cc(-c2ccco2)on1,-0.46,.
COCCCNC(=O)CN1c2ccc(Br)cc2-c2ccccc2S1(=O)=O,0.59,0.59
Cc1cc(-c2ccc(C)c(S(=O)(=O)Nc3cc(Cl)ccc3C)c2)on1,0.78,.
O=C(c1cc(-c2ccc(F)cc2)no1)N1CCN(Cc2ccc3c(c2)OCO3)CC1,2.3,.

# As entered above:
# `O=c1[nH]c2ccccc2nc1Cc1ccc(F)c(F)c1` in TAR Tat displ → 1.3
# `CCCNS(=O)(=O)c1ccc2[nH]c(=O)ccc2c1` in TAR Tat displ → -0.57
# `Cc1nc2sc(C(c3ccc(Cl)cc3)N3CCN(c4ccccc4F)CC3)c(O)n2n1` (stereo not drawn) in CDC25B CDK2 inh → -0.29

# Next part:
SMILES,TAR Tat displ,CDC25B CDK2 inh
O=C(CSc1nc2ncccc2o1)N1CCCc2ccccc21,0.24,.
CCOc1ccc(C2C(C#N)=C(N)Oc3nc[nH]c(=O)c32)cc1OC (stereo not drawn),.,0.9
COc1ccc(-c2nc(CSc3nncn4c3cc3sccc34)c(C)o2)cc1,0.12,.
COc1ccc(C2C(C(=O)OC3CCCC3)=C(C)NC3=C2C(=O)CC(c2ccccc2)C3)cc1OC (stereo not drawn),-0.49,-0.59
O=C(CN1C(=O)c2ccccc2S1(=O)=O)Nc1cccnc1,.,1.6
CCc1ccc(C2c3c(-c4c(C)cc(C)cc4O)n[nH]c3C(=O)N2CCO)cc1 (stereo not drawn),1.4,-0.53
CC1(C)CC(=O)C2=C(C1)N=C1c3ccccc3C(=O)C1C2c1cccc(Cl)c1 (stereo not drawn),-0.75,-0.13
CCC(=O)Nc1nc2cc(NC(=O)NC3CCCCC3)ccc2s1,-0.76,.
Cc1cc(N2CCOCC2)n2ncc(-c3ccc(F)cc3)c2n1,-0.11,-1.2
CCCSc1ncc(Cl)c(C(=O)Nc2sc(C)c(C)c2C(=O)OCC)n1,-3.7,-0.32
O=C([C@@H](c1ccccc1)N1Cc2ccccc2C1=O)N1CCN(c2ccccn2)CC1,1.4,-2
OC(COc1ccccc1)Cn1c(COc2ccccc2)nc2ccccc21 (stereo not drawn),0.9,1.6
N#Cc1c(-c2cccs2)nn(-c2ccc([N+](=O)[O-])cc2)c1N,.,-0.77
COC(=O)c1cc(=O)nc2sc3ccccc3n12,-1,0.28
CCOC(=O)c1cc(=O)c2cc(Cl)ccc2n1C,-0.3,-1.3
O=C(O)c1c2c(nc3ccccc13)CCCCC2,.,0.16
CCOC(=O)C1=C(C)Nc2nc(SCC(C)C)[nH]c(=O)c2C1c1ccc(F)cc1 (stereo not drawn),-0.55,-2.9
CCOC(=O)c1nnn2c1nc(SC(C(C)=O)C(=O)OCC)c1ccccc12 (stereo not drawn),.,-1.7
CC(=O)Nc1cccc(-n2nnc(SCc3cc(Cl)cc4c3OCOC4)n2)c1,.,0.26
CCc1ccc(NS(=O)(=O)c2cc(-c3cc(C)no3)ccc2C)cc1,0.45,.
CCCn1c2ccccc2c2cnn(CC(=O)Nc3ccc4c(c3)OCCO4)c(=O)c21,0.45,.
Cc1ccn2c(=O)c(Cc3nnc(SCC(=O)Nc4ccc(Cl)cc4)n3C)c(C)nc2c1,0.44,-0.87
CCNc1cc(N2CCOCC2)c2noc3c2c1C(=O)c1ccccc1-3,11*,1.2
CNc1nc(Nc2ccc(C)c(C)c2)c2cnn(C)c2n1,2.5,.
CCCCCSc1nnc2c(n1)OC(c1ccco1)Nc1ccccc1-2 (stereo not drawn),-0.31,-0.12
O=c1sc2ccccc2c2nc[nH]c12,.,-1.5
Cc1ccc(Br)cc1S(=O)(=O)Nc1ccccn1,2.3,0.38
CC(C)Cc1conc1C(=O)N1CCN(c2nc3cc(Br)ccc3n3cccc23)CC1,0.04,-1.5
Cc1cc(C)n(-c2nnc(NCC(C)c3ccccc3)c3ccccc23)n1 (stereo not drawn),1.1,.
Cc1nc2c(-c3cccc(Br)c3)c[nH]n2c(=O)c1Cc1ccccc1,.,-1.1
COc1ccc(C2C(C(=O)OC(C)C)=C(C)Nc3nc4ccccc4n32)c(OC)c1 (stereo not drawn),2.4,0.35
Cc1c(S(=O)(=O)c2ccc(Cl)cc2)nnn1-c1ccc(F)cc1,1.5,-0.99
CCOCCCNC(=O)Nc1c(C)nc2nc[nH]n2c1=O,-0.53,-1.4
COCCNC(=O)N1CCc2cc(S(=O)(=O)N3CCCC3)ccc21,1.3,.
COCCNC(=O)CCc1nc2ccccc2[nH]c1=O,1.8,-2.3
CCCn1cc(S(=O)(=O)c2cc(C)ccc2C)c(=O)c2cc(F)c(N3CCN(CC)CC3)cc21,-1.3,.
O=C(NCC1CCCO1)C1CCN(C(=O)N2CCOc3ccccc32)CC1 (stereo not drawn),1.5,.
Cn1cc(S(=O)(=O)N2CCc3ccccc32)cc1C(=O)N1CCN(c2ccccc2)CC1,-2.2,-0.66
O=C(O)c1cc(=O)cc(C(=O)O)[nH]1,.,-1.6
O=C1c2ccccc2C(=Cc2cccs2)c2ccccc21,-1,-30
CN(C)c1ccc(CN(Cc2ccco2)C(=O)c2cccs2)cc1,2.1,-1.7
Cc1cc(C)c2c(C(C)(C)C)nn(-c3ccc(C(=O)O)cc3)c2n1,-3.9,.
CCCn1c(CCC(=O)O)ccc1-c1ccc(Br)cc1,-1.8,-1.1
Cc1ccc(S(=O)(=O)N2CCN(c3nc(-c4ccc(F)cc4)cs3)CC2)cc1,.,0.73
O=C(c1ccc(NC2=NC3CS(=O)(=O)CC3S2)cc1)N1CCCC1 (stereo not drawn),.,-1.7
Cn1c(=O)c2nc(-c3cccc(F)c3)oc2c2ccccc21,.,-0.23
CC(C)Oc1ccc(CNS(=O)(=O)c2ccc(-c3ccc(=O)[nH]n3)s2)cc1,0.87,.
CCc1nn(CCCC(=O)N2CCN(C)CC2)c(=O)c2cc3occc3n12,1,0.04

# 2 records drawn at random from the list so far, as already listed:
SMILES,TAR Tat displ,CDC25B CDK2 inh
COc1ccc(-c2noc(CN(C)S(=O)(=O)c3ccc(Br)cc3)n2)cc1OC,2.9,-1.5
Cc1c(S(=O)(=O)c2ccc(Cl)cc2)nnn1-c1ccc(F)cc1,1.5,-0.99

# Following part.
SMILES,TAR Tat displ,CDC25B CDK2 inh
O=C(NCc1ccc(S(=O)(=O)N2CCOCC2)s1)C1CC(=O)N(c2ccccc2)C1 (stereo not drawn),-0.74,.
COc1cc(C(O)CO)ccc1O (stereo not drawn),.,-2.9
Cc1ccc(NS(=O)(=O)c2ccc(-n3cccn3)cc2)c(C)c1,0.86,.
O=C(c1cc(-c2ccccc2)on1)N(Cc1ccccc1)C1CCS(=O)(=O)C1 (stereo not drawn),0.78,-0.28
NC(Cc1cnc[nH]1)C(=O)Nc1ccc2ccccc2c1 (stereo not drawn),-2,.
CC1CCN(c2nnc(-n3cccc3CN3CCN(c4ccccn4)CC3)s2)CC1,0.89,.
CCCCN1C(=O)C(O)(CC(=O)c2ccc(C)s2)c2cc(Br)ccc21 (stereo not drawn),-0.86,-0.31
CCC(C(=O)Nc1c(C)nc2ccc(Cl)cn2c1=O)c1ccccc1 (stereo not drawn),0.47,.
COc1ccc(CCCc2nnc(SCC(=O)Nc3cccc(F)c3C)o2)cc1,.,0.29
CC1(C)CC(=O)C2=C(C1)c1c(ccc3ncccc13)NC2c1ccc(Br)cc1 (stereo not drawn),.,0.65
CCOC(=O)c1c(C)[nH]c(C(=O)CSc2nnc3sc4ccccc4n23)c1C,.,0.37
Cc1cc(C)cc(NC(=O)CSCc2cc(=O)n3cc(C)sc3n2)c1,1.5,.
CC1=NS(=O)(=O)c2cc(S(=O)(=O)Nc3ccccc3C)ccc2N1,-6.4,.
Cc1cc(N2C(=O)CCC2(C)C(=O)NC2CCCC2)ccc1Br (stereo not drawn),-1.8,-1.8
O=C(O)c1cccc(-c2ccc(/C=N/NC(=O)c3sc4ccccc4c3Cl)o2)c1,.,-1.3
Cn1cc(CCCC(=O)NCCCN2CCN(C3CCCCC3)CC2)c2ccccc21,1.6,.
CC1CCN(c2sc(S(C)(=O)=O)nc2S(=O)(=O)c2ccc(Cl)cc2)CC1,-0.25,-2.8
O=C(NCc1ccc2[nH]c3c(c2c1)CCCC3)C(=O)c1c[nH]c2ccccc12,2.9,-2.1
Cn1c(=O)c2c(ncn2CC(O)CN2CCN(CCO)CC2)n(C)c1=O (stereo not drawn),-0.47,-2.1
Cc1ccc(C)c(Nc2c(C)c(C)nc3ncnn23)c1,0.76,.
O=C(Nc1ccc2c(c1)OCCO2)c1cc(CN2CCCC2)on1,0.08,.
COc1cc(OC)c(C2CC(=O)Nc3cc4c(cc32)OCO4)cc1OC (stereo not drawn),.,-0.95
O=C(CCc1nc(-c2ccccn2)no1)Nc1ccccc1Cl,1.7,-1.5
Cc1ccc(OCc2ccc(-c3nc(C#N)c(N4CCCC4)o3)o2)cc1,-1.4,-1.2
COc1ccc(C(Nc2cc(C)ccn2)c2ccc3cccnc3c2O)cc1O (stereo not drawn),.,-5.1
O=C(Nc1cccc(Cl)c1)Nc1noc2c1COc1ccccc1-2,2,.
O=C(NCc1ccc(F)cc1)N1CCC2(CC1)Nc1cc(F)ccc1-n1cccc12,-0.9,.
COc1ccc(S(=O)(=O)NCCc2cn3ccsc3n2)cc1OC,1.2,.
C=CCn1c(=S)[nH]c2ccc(Br)cc2c1=O,.,-4.4
COc1ccc(OC)c(Nc2nc(Nc3ccc(Cl)cc3)c3cnn(C)c3n2)c1,-1.5,.
Cc1cccc(Nc2nc(-c3c(C)nc4ccccn34)cs2)c1,-1.5,-1.8
COC(=O)C1=C(OC(=O)c2ccccc2OC)c2ccccc2S(=O)(=O)N1C(C)C,0.28,0.94
Cc1c(OCC(=O)Nc2ccc(C(C)C)cc2)ccc2c1OC(C)(C)CC2=O,.,1.3
COc1ccc(-c2nc(SCC(=O)c3ccccc3)[nH]c(=O)c2C#N)cc1,-2.3,.
COc1ccc(NC(=O)C2CCCN(S(=O)(=O)c3ccc4[nH]c(=O)oc4c3)C2)cc1OC (stereo not drawn),-0.03,.
C=CCn1c(SCC(=O)Nc2nccs2)nc2c([nH]c3ccccc32)c1=O,1.2,.
CCOC(=O)c1ccc(N2C(=O)c3n[nH]c(-c4cccs4)c3C2c2cccs2)cc1 (stereo not drawn),-0.6,.
COc1ccc(-c2nc(C#N)c(NC3CC3)o2)cc1,-1,-0.54
CN(C(=O)N1c2ccccc2Sc2ccccc21)c1ccccc1,2.2,-1.9
CCOC(=O)Cn1c(C2CC(=O)N(Cc3ccco3)C2)nc2ccccc21 (stereo not drawn),-0.18,0.45
O=C(NCCCN1CCC(N2CCCCC2)CC1)c1ccc(N2CCOc3ccccc32)s1,1.4,.
O=c1c(Nc2ccc(-c3ccno3)cc2)c(-c2ccc(Cl)cc2)c1=O,-0.26,.
Oc1cccc2ccc(CNC3CC3)nc12,0.73,.
CC1=C(C(=O)Nc2ccccc2Br)C2(CCCCC2)OC1=O,-1.5,-1.9
Cc1sc(NC(=O)c2ccc3c(c2)OCCO3)c(C(N)=O)c1C,0.34,.
Cc1nn(CC(=O)NCCCN2C(C)CCCC2C)c(=O)c2cccn12 (stereo not drawn),2,-0.78
CC(CC(=O)Nc1ccc2c(c1)OCCO2)S(=O)(=O)c1ccc2c(c1)CCN2C(=O)C1CC1 (stereo not drawn),1.1,.
O=S(=O)(c1ccc(F)cc1)N1CCCN(Cc2c(F)cccc2F)CC1,.,3
CCOC(=O)c1c(C)[nH]c(C)c1S(=O)(=O)N1c2ccccc2CC1C (stereo not drawn),-0.44,.
O=C(NCc1ccc(Cl)cc1)c1nn2c(C(F)(F)F)cc(-c3ccco3)nc2c1Cl,-5,1.3
CC(C)OCCCN(Cc1ccco1)C(=O)c1cc2c(s1)-c1ccccc1OC2,1.8,-0.3
CCCC(CCC)C(=O)NCCN1CCOCC1,-0.98,-0.51
COc1cc(Cl)c(NC(=O)NC2COc3ccccc3C2)c(OC)c1 (stereo not drawn),1.4,.
Cc1ccc(-c2c(NC3CCCCC3C)c(=O)c2=O)cc1 (stereo not drawn),1.7,.
CCN(c1ccccc1)c1ncnc2c1cnn2C,3,.
